# Yeast UUG start: modulators of yeast start codon fidelity, primary screen, whole organism, S. cerevisiae, single point, plate reader; S. cerevisiae UUG-firefly luciferase reporter, luminescence/redox ratio; activity score, % at 18.7 µM; actives 0.13% (n = 350,000);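 active = replicate mean at a twofold rise or more, about +100% in these data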;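 note: firefly luciferase made from a UUG start codon reports start codon fidelity; reporter light over untreated wells divided by growth signal over untreated wells; some hits fall short of that in this replicate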
# Env fusion inh: inhibitors of HIV-1 Env-driven cell-cell fusion, primary screen, HeLa-JRFL effector, CEM21 target cells, luciferase | inhibition, % at 12.3 µM | actives 1.1% (n = 360,000);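 active = mean replicate inhibition score of at least 50 and every replicate individually at or above 50; inconclusive = only one of the two criteria met; inactive = mean below 50 and not all replicates reaching 50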;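 note: 0% = plate neutral controls and 100% = maraviroc near 300 nM; one replicate is shown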
# Numbers without * were called inactive; ? = inconclusive; & = joins results of further samples; [ ] = remark or other dose. An excerpt. The share of hits here may be higher or lower than overall.
SMILES,Yeast UUG start,Env fusion inh
COCC(=O)Nc1ccc2c(c1)[C@@H]1C[C@@H](CC(=O)NC3CCCCC3)O[C@@H](CO)[C@@H]1O2,2,-14[16.7 µM]
C/C=C/c1cnc2c(c1)C(=O)N([C@@H](C)CO)C[C@@H](C)[C@H](CN(C)C(=O)C1CC1)O2,-1,1[16.7 µM]
C[C@H]1CN([C@@H](C)CO)C(=O)c2cccc(NS(=O)(=O)c3ccccc3)c2O[C@H]1CN(C)Cc1ccc(Cl)c(Cl)c1,-7,-31[16.7 µM]
C[C@@H]1CCCCO[C@@H](CN(C)Cc2ccc(C(F)(F)F)cc2)[C@@H](C)CN([C@H](C)CO)C(=O)c2cc(NC(=O)CCCN(C)C)ccc2O1,-6,10[16.7 µM]
C[C@H]1CN([C@@H](C)CO)C(=O)c2cc(C#CC3CCCCC3)cnc2O[C@@H]1CN(C)S(C)(=O)=O,13,2[16.7 µM]
C[C@@H]1CN([C@@H](C)CO)C(=O)c2cc(NC(=O)C3CC3)ccc2O[C@H]1CN(C)Cc1ccc(C(F)(F)F)cc1,0,-11[16.7 µM]
CO[C@H]1CN(C)C(=O)c2cc(NC(C)=O)ccc2OC[C@H](C)N(C(=O)c2ccncc2)C[C@H]1C,8,-4[16.7 µM]
C[C@@H]1CN([C@@H](C)CO)C(=O)c2cc(NC(=O)c3ccncc3)ccc2O[C@@H](C)CCCCO[C@@H]1CN(C)Cc1ccc(C(F)(F)F)cc1,10,-3[16.7 µM]
COCC(=O)N(C)C[C@@H]1Oc2cc(C3=CCCC3)ccc2S(=O)(=O)N([C@H](C)CO)C[C@H]1C,-1,6[16.7 µM]
COc1ccc(NC(=O)Nc2ccc3c(c2)C(=O)N([C@@H](C)CO)C[C@H](C)[C@H](CN(C)C)OCCCC[C@H](C)O3)cc1,0,24[16.7 µM]
C[C@H](CO)N1C[C@H](C)[C@H](CN(C)C(=O)NC2CCCCC2)Oc2ncc(/C=C/c3ccccc3)cc2C1=O,4&10,6&12[16.7 µM]
COc1ccc(NC(=O)N(C)C[C@H]2Oc3ccc(NS(=O)(=O)c4ccc(Cl)cc4)cc3C(=O)N([C@H](C)CO)C[C@H]2C)cc1,8,1[16.7 µM]

# Single records (already shown).
# Shown for COc1ccc(NC(=O)Nc2ccc3c(c2)C(=O)N([C@@H](C)CO)C[C@H](C)[C@H](CN(C)C)OCCCC[C@H](C)O3)cc1 = Yeast UUG start: 0; Env fusion inh: 24[16.7 µM]
# Shown for C[C@H](CO)N1C[C@H](C)[C@H](CN(C)C(=O)NC2CCCCC2)Oc2ncc(/C=C/c3ccccc3)cc2C1=O = Yeast UUG start: 4&10; Env fusion inh: 6&12[16.7 µM]
# Shown for C[C@H]1CN([C@@H](C)CO)C(=O)c2cccc(NS(=O)(=O)c3ccccc3)c2O[C@H]1CN(C)Cc1ccc(Cl)c(Cl)c1 = Yeast UUG start: -7; Env fusion inh: -31[16.7 µM]

# The results go on.
SMILES,Yeast UUG start,Env fusion inh
CC(C)NC(=O)[C@@]1(C)c2ccccc2C(=O)N(Cc2ccccc2)[C@H]1c1ccc(CO)cc1,3,20[16.7 µM]
Cc1ccc(S(=O)(=O)Nc2ccc3c(c2)C(=O)N([C@H](C)CO)C[C@H](C)[C@H](CN(C)Cc2ccccc2)OCCCC[C@H](C)O3)cc1,19,24[16.7 µM]
C[C@@H]1CN([C@@H](C)CO)C(=O)c2cc(-c3ccncc3)cnc2O[C@H]1CN(C)C(=O)Cc1ccccn1,-14,-9[16.7 µM]
Cc1ccccc1S(=O)(=O)NCC[C@H]1CC[C@H](NC(=O)C2CCCCC2)[C@@H](CO)O1,5,10[16.7 µM]
COCC(=O)N(C)C[C@H]1Oc2ncc(C#C[C@H](C)O)cc2C(=O)N([C@H](C)CO)C[C@@H]1C,5,-48[16.7 µM]
CC(C)C(=O)Nc1ccc2c(c1)C(=O)N(C)[C@H]1CC[C@@H](CC(=O)O)O[C@H]1CO2,-5,3[16.7 µM]
Cc1noc(C)c1S(=O)(=O)N(C)C[C@@H]1Oc2ccc(NC(=O)NC(C)C)cc2CC(=O)N([C@@H](C)CO)C[C@H]1C,22,1[16.7 µM]
Cc1noc(C)c1NC(=O)Nc1ccc2c(c1)CC(=O)N([C@@H](C)CO)C[C@@H](C)[C@H](CN(C)S(=O)(=O)c1cccs1)O2,5,2[16.7 µM]
C[C@@H]1CCCCO[C@H](CN(C)C(=O)Nc2ccc(C(F)(F)F)cc2)[C@@H](C)CN([C@H](C)CO)C(=O)c2cc(NC(=O)c3ccccc3)ccc2O1,-5,-38[16.7 µM]
COc1ccc(NC(=O)Nc2ccc3c(c2)C(=O)N([C@@H](C)CO)C[C@@H](C)[C@@H](CN(C)C(=O)Nc2ccc(OC)cc2)OCCCC[C@@H](C)O3)cc1,-19,-33[16.7 µM]
Cc1noc(C)c1NC(=O)Nc1cccc2c1O[C@H](CN(C)S(=O)(=O)c1ccc(Cl)cc1)[C@@H](C)CN([C@@H](C)CO)C2=O,5,-3[16.7 µM]
CN1CCN(C(=O)C[C@H]2CC[C@H]3[C@H](COc4ccc(NC(=O)c5ccc(F)c(F)c5)cc4C(=O)N3C)O2)CC1,-5,11[16.7 µM]
C[C@H]1CN([C@@H](C)CO)C(=O)Cc2cc(NC(=O)Cc3ccccc3)ccc2O[C@@H]1CN(C)C(=O)NC1CCCCC1,-11,18[16.7 µM]
COCC#Cc1ccc2c(c1)O[C@@H](CN(C)C(=O)Nc1ccccc1F)[C@@H](C)CN([C@@H](C)CO)S2(=O)=O,12,-11[16.7 µM]
COCC(=O)Nc1ccc2c(c1)[C@H]1C[C@H](CC(=O)NCc3ccccc3)O[C@@H](CO)[C@H]1O2,-17,-22[16.7 µM]
CC(=O)N(C)C[C@H]1Oc2cc(-c3cccnc3)ccc2S(=O)(=O)N([C@H](C)CO)C[C@@H]1C,-11,26[16.7 µM]
C[C@H](CO)N1C[C@H](C)[C@H](CN(C)Cc2ccc(Cl)c(Cl)c2)Oc2ccc(NS(=O)(=O)c3ccc(F)cc3)cc2C1=O,-4,-20[16.7 µM]
Cc1ccc(S(=O)(=O)N(C)C[C@H]2OCCCC[C@H](C)Oc3ccc(NS(=O)(=O)c4ccc(Cl)cc4)cc3C(=O)N([C@H](C)CO)C[C@H]2C)cc1,-1,4[16.7 µM]
CCS(=O)(=O)Nc1ccc2c(c1)C(=O)N(C)[C@@H]1CC[C@@H](CC(=O)NC3CCCCC3)O[C@H]1CO2,6,1[16.7 µM]
CC(=O)N(C)C[C@H]1Oc2cc(-c3cccnc3)ccc2S(=O)(=O)N([C@@H](C)CO)C[C@@H]1C,-2,?
C[C@H](O)C#Cc1ccc2c(c1)O[C@@H](CN(C)C(=O)CN(C)C)[C@@H](C)CN([C@H](C)CO)S2(=O)=O,9,-8[16.7 µM]
C[C@@H]1CN([C@@H](C)CO)C(=O)c2cccc(NS(=O)(=O)c3ccccc3)c2O[C@H]1CN(C)Cc1ccc(Cl)c(Cl)c1,-7,-8[16.7 µM]
CS(=O)(=O)N1[C@H](CO)[C@@H](c2ccccc2)[C@@H]1C#N,-10,-4[16.7 µM]
Cc1noc(C)c1S(=O)(=O)Nc1ccc2c(c1)C(=O)N([C@@H](C)CO)C[C@@H](C)[C@@H](CN(C)S(=O)(=O)c1ccc(Cl)cc1)O2,1,-50[16.7 µM]
C[C@H]1CN([C@@H](C)CO)C(=O)c2cccc(NC(=O)C3CC3)c2O[C@@H]1CN(C)CC1CCCCC1,11,35[16.7 µM]
O=C(NCC[C@@H]1CC[C@@H](NC(=O)C2CCOCC2)[C@@H](CO)O1)Nc1ccc(Cl)cc1,-10,9[16.7 µM]
CC(=O)N(C)C[C@@H]1Oc2ncc(-c3cccc(C#N)c3)cc2C(=O)N([C@@H](C)CO)C[C@@H]1C,-5,3[16.7 µM]
Cn1cnc(S(=O)(=O)N2C[C@H](O)COC[C@H]3O[C@@H](CC(=O)NC4Cc5ccccc5C4)CC[C@@H]32)c1,-4,-3[16.7 µM]
O=C(C[C@H]1CC[C@@H]2[C@H](COC[C@H](O)CN2C(=O)Nc2ccc(Cl)c(Cl)c2)O1)NC1CCC1,4,-11[16.7 µM]
CCC(=O)N[C@@H]1C=C[C@@H](CC(=O)NCc2ccc(OC)cc2)O[C@H]1CO,-8,-3[16.7 µM]
CC(C)NC(=O)N(C)C[C@@H]1Oc2cc(C#CCN(C)C)ccc2S(=O)(=O)N([C@@H](C)CO)C[C@@H]1C,-4,19[16.7 µM]
C[C@H](CO)N1C[C@H](C)[C@H](CN(C)CC2CCOCC2)Oc2ncc(C#Cc3ccccc3)cc2C1=O,3,6[16.7 µM]
C[C@@H]1CN([C@@H](C)CO)C(=O)c2cc(NS(C)(=O)=O)ccc2O[C@@H](C)CCCCO[C@@H]1CN(C)C(=O)Cc1ccccc1,16,7[16.7 µM]
CCCN(C)C[C@@H]1Oc2cc(-c3cccc(OC)c3)ccc2S(=O)(=O)N([C@H](C)CO)C[C@@H]1C,-12,-1[16.7 µM]
C[C@@H]1CN([C@@H](C)CO)C(=O)c2cccc(NC(=O)Nc3ccc4c(c3)OCO4)c2O[C@H]1CN(C)Cc1ccc2c(c1)OCO2,-3,-23[16.7 µM]
Cc1noc(C)c1S(=O)(=O)N(C)C[C@H]1OCCCC[C@H](C)Oc2ccc(NC(=O)CCC(F)(F)F)cc2C(=O)N([C@@H](C)CO)C[C@@H]1C,23,10[16.7 µM]
C[C@H](CO)N1C[C@H](C)[C@H](CN(C)Cc2ccccc2)Oc2c(NC(=O)Nc3ccc4c(c3)OCO4)cccc2C1=O,16,65*[16.7 µM]
C[C@@H]1CN([C@@H](C)CO)S(=O)(=O)c2ccc(C#CC(C)(C)O)cc2O[C@@H]1CN(C)C,-5,3[16.7 µM]
C[C@@H]1CCCCO[C@@H](CN(C)C(=O)CCCN(C)C)[C@H](C)CN([C@H](C)CO)C(=O)c2cc(NC(=O)c3ccccc3)ccc2O1,28,5[16.7 µM]
Cc1noc(C)c1S(=O)(=O)N(C)C[C@H]1Oc2ccc(NS(=O)(=O)c3ccc(F)cc3)cc2C(=O)N([C@H](C)CO)C[C@H]1C,1,12[16.7 µM]
C[C@H](CO)N1C[C@H](C)[C@H](CN(C)C(=O)Nc2ccc(C(F)(F)F)cc2)Oc2ccc(N(C)C)cc2CC1=O,-8,25[16.7 µM]
C[C@@H]1CCCCO[C@H](CN(C)S(=O)(=O)c2cccs2)[C@@H](C)CN([C@@H](C)CO)C(=O)c2cc(NC(=O)CCC(F)(F)F)ccc2O1,38,-32[16.7 µM]
Cc1noc(C)c1S(=O)(=O)Nc1ccc2c(c1)CC(=O)N([C@@H](C)CO)C[C@@H](C)[C@@H](CN(C)Cc1ccc(C(=O)O)cc1)O2,-15,0[16.7 µM]
C[C@H]1CN([C@@H](C)CO)C(=O)c2cc(NC(=O)c3ccncc3)ccc2O[C@H]1CN(C)C(=O)Nc1cccc2ccccc12,4,2[16.7 µM]
Cc1ccccc1S(=O)(=O)N1[C@H](CO)[C@@H](c2ccc(-c3ccc(F)cc3)cc2)[C@@H]1C#N,-6,-10[16.7 µM]
COCCOC(=O)N1C(=O)[C@@]2(c3ccccc31)[C@H](C(=O)Nc1nc3ccccc3s1)[C@H]1C(=O)O[C@H](c3ccccc3)[C@H](c3ccccc3)N1[C@@H]2c1ccc(OCCO)cc1,-2,-19[16.7 µM]
COc1ccc(S(=O)(=O)Nc2ccc3c(c2)C(=O)N([C@@H](C)CO)C[C@H](C)[C@@H](CN(C)C(=O)Nc2ccc(C(F)(F)F)cc2)O3)cc1,-1,0[16.7 µM]
CN1C(=O)c2cc(NC(=O)c3cccs3)ccc2OC[C@H]2O[C@H](CC(=O)N3CCOCC3)CC[C@H]21,-11,-7[16.7 µM]
O=C(C[C@H]1C=C[C@H](NC(=O)c2cccnc2)[C@H](CO)O1)NCc1ccc(Cl)c(Cl)c1,-2,-16[16.7 µM]
C[C@@H]1CN([C@H](C)CO)C(=O)c2cc(NC(=O)Nc3ccc(F)cc3)ccc2O[C@@H]1CN(C)C(=O)NC1CCCCC1,-7,-3[16.7 µM]
C[C@H]1CN([C@@H](C)CO)C(=O)c2cc(NS(=O)(=O)c3ccc(Cl)cc3)ccc2O[C@H]1CN(C)Cc1ccc(Cl)c(Cl)c1,15,16[16.7 µM]
CCc1cnc(N2[C@@H](C#N)[C@@H](c3ccc(C4=CCCC4)cc3)[C@@H]2CO)s1,0,10[16.7 µM]
COc1ccccc1S(=O)(=O)N[C@@H]1CC[C@@H](CC(=O)N2CCCCC2)O[C@H]1CO,2,-10[16.7 µM]
C[C@@H]1CN([C@@H](C)CO)S(=O)(=O)c2ccc(C3=CCCCC3)cc2O[C@H]1CN(C)Cc1ccncc1,-10,49[16.7 µM]
COc1cccc(C#Cc2cnc3c(c2)C(=O)N([C@H](C)CO)C[C@@H](C)[C@@H](CN(C)C(C)=O)O3)c1,24,5[16.7 µM]
Cc1ccc(S(=O)(=O)N(C)C[C@@H]2OCCCC[C@H](C)Oc3ccc(NC(=O)c4ccncc4)cc3C(=O)N([C@H](C)CO)C[C@H]2C)cc1,-6,9[16.7 µM]

# Retrieved one by one from the list above (three):
SMILES,Yeast UUG start,Env fusion inh
Cc1ccc(S(=O)(=O)N(C)C[C@@H]2OCCCC[C@H](C)Oc3ccc(NC(=O)c4ccncc4)cc3C(=O)N([C@H](C)CO)C[C@H]2C)cc1,-6,9[16.7 µM]
C[C@@H]1CN([C@H](C)CO)C(=O)c2cc(NC(=O)Nc3ccc(F)cc3)ccc2O[C@@H]1CN(C)C(=O)NC1CCCCC1,-7,-3[16.7 µM]
COc1cccc(C#Cc2cnc3c(c2)C(=O)N([C@H](C)CO)C[C@@H](C)[C@@H](CN(C)C(C)=O)O3)c1,24,5[16.7 µM]

# Screens from PubChem BioAssay.
